Compound activity from PubChem.
Mtb growth = M. tuberculosis H37Rv growth inhibitors, H37Rv strain (AID 1626) | M. tuberculosis H37Rv growth inhibition; higher % means a stronger effect | actives 0.95% (n = 220,000) | inhibition, % at 10 µM; hits with a dose series show IC50 in µM;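 active = confirmed in a dose series; inconclusive = inhibition above 80% but not taken into the dose series; inactive = below 80% or under 30% at every dose of the series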;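 note: bacteria incubated seven days before Alamar blue readout; 0% = bacteria only wells and 100% = bacteria with antibiotic wells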
Mtb betalactam = beta-lactam sensitization of Mtb H37Rv; actives 0.27% (n = 330,000); inhibition, % at 25 µM; M. tuberculosis H37Rv growth with meropenem, percent inhibition; hits of this screen are not shown here; AID 434955;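 active = about 74% or more and at least 40 points above the plate without the antibiotic, then above 30% in a dose series; inconclusive = first-round hits that could not be retested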;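 note: growth measured after seven days incubation then overnight dye step; 0% = bacteria only wells and 100% = bacteria with antibiotic; twin plates without the antibiotic show which effects depend on it; some results filed as inactive read as strong as hits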
YopH inh = blocks Yersinia enterocolitica YopH tyrosine phosphatase; fluorescence Ex485/Em525; inhibition, %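 (about 10 µM by stock and volumes)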; actives 0.16% (n = 140,000); AID 898;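 active = inhibition of 50% or more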;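 note: controls were vehicle for no effect and minimum signal wells for full effect; inactives centre near -20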
RecA splice inh = inhibitors of M. tuberculosis RecA intein splicing | P9WHJ3 | cell-free RecA intein splicing, fluorescence | inhibition, %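 (about 9 µM by stock and volumes)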 | actives 0.75% (n = 290,000) | AID 2221; in the data active = inhibition above about 30%; inconclusive = no clear call, values can overlap the other calls;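 note: 0% = vehicle wells and 100% = reference inhibitor control wells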
Target sequence (P9WHJ3 whole entry, looked up, canonical isoform): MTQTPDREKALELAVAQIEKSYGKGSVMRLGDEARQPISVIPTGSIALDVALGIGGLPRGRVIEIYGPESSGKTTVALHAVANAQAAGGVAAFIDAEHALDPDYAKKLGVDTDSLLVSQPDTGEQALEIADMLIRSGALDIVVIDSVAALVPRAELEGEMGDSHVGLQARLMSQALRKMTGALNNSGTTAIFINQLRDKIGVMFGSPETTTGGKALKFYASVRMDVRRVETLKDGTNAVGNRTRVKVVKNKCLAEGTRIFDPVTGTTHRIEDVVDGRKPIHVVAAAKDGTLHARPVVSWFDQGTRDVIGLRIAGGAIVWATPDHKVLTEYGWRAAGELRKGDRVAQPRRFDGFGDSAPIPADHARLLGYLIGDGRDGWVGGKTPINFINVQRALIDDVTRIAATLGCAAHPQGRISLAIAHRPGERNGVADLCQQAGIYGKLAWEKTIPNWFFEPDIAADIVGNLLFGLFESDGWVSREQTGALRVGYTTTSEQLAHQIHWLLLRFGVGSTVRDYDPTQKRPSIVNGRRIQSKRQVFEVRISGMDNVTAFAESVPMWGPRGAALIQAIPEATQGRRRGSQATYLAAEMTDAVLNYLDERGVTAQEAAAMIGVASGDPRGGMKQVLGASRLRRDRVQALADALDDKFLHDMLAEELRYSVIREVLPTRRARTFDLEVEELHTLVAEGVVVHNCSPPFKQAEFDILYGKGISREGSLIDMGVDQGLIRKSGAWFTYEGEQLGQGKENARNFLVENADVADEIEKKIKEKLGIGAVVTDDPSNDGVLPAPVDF
Arbovirus anti = arbovirus infection inhibition. arbovirus infection cell-based antiviral screen. inhibition, % at 10 µM. actives 0.37% (n = 200,000);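 active = inhibition from about 30%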;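 note: bluetongue infection of BSR cells; cell survival read as ATP light after 72 h; 0% = infected wells without compound and 100% = uninfected wells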
Arbovirus anti repeat = further read-out of Arbovirus anti, marked with its call; inhibition, %; measured here: 10K subset replicate screen; many hits read low in the repeat;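 first of two repeat runs on a subset; 0% = infected and 100% = uninfected wells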
An asterisk follows results filed as active; ? = inconclusive; nt = no result given. Only part of the results is shown (hit frequency here may not be typical).

SMILES | Mtb growth | Mtb betalactam | YopH inh | RecA splice inh | Arbovirus anti | others
O=[N+]([O-])c1cccnc1N1CCC(c2cc(-c3ccc(Cl)cc3)n[nH]2)CC1 | nt | 100 | 8 | 11 | -45
Cc1nc(C)c(C(=O)NNC(=O)Nc2ccc(Cl)cc2)s1 | 1% | -7 | nt | 3.4 | nt
Cc1ccc(OCc2nnc(SCC(=O)Nc3cc(C)on3)n2C)cc1 | -1% | ? | -30 | -2.4 | -2
Nn1c(Cc2ccccc2F)nnc1SCn1nnc2ccccc2c1=O | 6% | -4 | -36 | -3.1 | -1
CCc1nnc(NC(=O)C2CCCN2S(=O)(=O)c2ccc(C)cc2)s1 (stereo not given) | nt | -11 | 8 | -0.8 | 2
CCOC(=O)N1CCC(N2CCN(S(=O)(=O)c3ccc(Cl)cc3)CC2)CC1 | -10% | 80 | -16 | -0.1 | 3
O=C(NCC(=O)N1CCCCCC1)c1ccc(Br)cc1 | nt | 0 | nt | 1.1 | nt
Cc1nn2c(N)c(-c3ccccc3)cnc2c1-c1ccccc1 | nt | -7 | nt | 0.4 | nt
CC1CC1C(=O)OCC(=O)c1c(N)n(C)c(=O)n(C)c1=O (stereo not given) | 2% | -1 | nt | -3.1 | 6
COc1ccc(NC(=O)N2CCN(S(C)(=O)=O)CC2)c(OC)c1 | 0% | 3 | nt | -4.1 | 5
C/C(=N/NC(=O)OC(C)(C)C)c1ccco1 | -7% | -3 | -27 | 1.5 | -5
Cc1nc2c3ccccc3nc(NNC(=O)CCC(=O)N3CCCC(C)C3)n2n1 (stereo not given) | nt | 0 | nt | -4.1 | nt
COc1cc(CCC(=O)Nc2cccc(S(=O)(=O)N(C)C)c2)cc(OC)c1OC | -1% | 0 | -27 | 1.0 | 2
O=C(CSc1ncc(-c2ccc(F)cc2)[nH]1)NCc1ccco1 | 0% | -2 | -52 | 1.0 | -2
COc1ccc(S(=O)(=O)N(CC(=O)NC2CCCCC2)c2ccc(F)cc2)cc1 | nt | 1 | nt | -3.8 | nt
O=C(CSc1cn(CCNC(=O)c2ccccc2F)c2ccccc12)NCC1CCCO1 (stereo not given) | nt | -2 | nt | -2.5 | nt
Cc1ccc(OCC(=O)N/N=C\c2ccncc2)c(C)c1 | 3% | 5 | -7 | 2.7 | -9
Cc1nnc(NC(=O)c2cc3n(n2)C(C(F)(F)F)CC(C2CC2)N3)s1 (stereo not given) | -10% | -9 | -25 | -0.4 | 4
COc1ccc(/C=N/NC(=O)CCn2cnc(-c3ccccc3)c2-c2ccccc2)cc1 | 3% | 1 | -9 | 2.6 | 0
COC(=O)c1ccc2c(=O)[nH]c(COC(=O)c3c(-c4ccccc4)noc3C)nc2c1 | nt | -6 | nt | -1.3 | nt
O=C(COc1ccc(S(=O)(=O)N2CCOCC2)cc1Cl)N1CCCC1 | nt | -4 | nt | -0.5 | nt
COc1ccc(C)cc1NC(=O)NC1CCCCCCC1 | nt | 1 | nt | -0.1 | nt
Cc1ccc(CN(C)C(=O)c2ccc3c(c2)NC(=O)CS3)o1 | -2% | -11 | nt | -0.5 | nt
Cc1c(NS(=O)(=O)c2ccc3c(c2)c(=O)n(C)c(=O)n3C)c(=O)n(-c2ccccc2)n1C | nt | 5 | -22 | -0.7 | -1
CCOC(=O)N1CCC(NC(=O)CSCc2nc(-c3ccc(OC)cc3)oc2C)CC1 | nt | 3 | nt | 0.6 | nt

An excerpt from above in order of length of the SMILES, low to high:
SMILES | Mtb growth | Mtb betalactam | YopH inh | RecA splice inh | Arbovirus anti | others
COc1ccc(C)cc1NC(=O)NC1CCCCCCC1 | nt | 1 | nt | -0.1 | nt
O=C(CSc1cn(CCNC(=O)c2ccccc2F)c2ccccc12)NCC1CCCO1 (stereo not given) | nt | -2 | nt | -2.5 | nt
COc1ccc(S(=O)(=O)N(CC(=O)NC2CCCCC2)c2ccc(F)cc2)cc1 | nt | 1 | nt | -3.8 | nt
Cc1c(NS(=O)(=O)c2ccc3c(c2)c(=O)n(C)c(=O)n3C)c(=O)n(-c2ccccc2)n1C | nt | 5 | -22 | -0.7 | -1

(next part)
SMILES | Mtb growth | Mtb betalactam | YopH inh | RecA splice inh | Arbovirus anti | others
COc1ccc(C(C)=O)cc1CC(=O)Nc1ccccc1-c1ccccc1 | nt | 6 | nt | 2.2 | nt
CC1CCCN(C(=O)c2ccc3c(c2)C(=O)N(CCC2=CCCCC2)C3=O)C1 (stereo not given) | nt | -2 | 0 | 4.1 | 6 | Arbovirus anti repeat=-1
COc1ccc(C2=CSC3=C(C(=O)c4cccc(S(=O)(=O)N(C)C)c4)CCN23)cc1 | -5% | -4 | -13 | 4.5 | -6
CN(CC(=O)Nc1ccccc1Cl)C(=O)CSc1nncn1C | nt | -5 | nt | 0.4 | nt
COc1cccc(S(=O)(=O)Nc2ccc(C(=O)N3CCOCC3)cc2)c1 | -3% | -5 | 6 | 0.6 | 0
COc1cccc(N/C(SCc2ccccc2F)=C(/C#N)C(=O)NCc2cccs2)c1 | 13% | 7 | -10 | 3.9 | -9
Cc1cc(NC(=O)CSc2nnc(C(C)N(C)C)n2Cc2ccccc2)no1 (stereo not given) | -6% | -4 | -24 | nt | 7
O=C(Nc1ccc2ncccc2c1)c1ccccc1Br | nt | 5 | nt | -0.2 | nt
O=C(Nc1ccncc1)Nc1ccccn1 | -7% | -9 | -10 | -2.3 | 23
O=C1C(=O)N(C/C=C/c2ccccc2)c2ccccc21 | nt | 7 | nt | 0.3 | nt
CC(=O)N[C@@H](Cc1c[nH]c2ccccc12)C(=O)NCc1ccccc1 | nt | -5 | nt | -1.1 | nt
COc1ccc2oc(C(=O)N(C)Cc3ccc(OC(F)F)cc3)c(C)c2c1 | nt | -3 | nt | 7.6 | nt
N#CC1(NC(=O)COC(=O)c2nc(Cl)c(Cl)c(N)c2Cl)CCCCC1 | nt | -16 | nt | -2.9 | nt
O=C1c2cccc3cccc(c23)C(=O)N1CCc1ccccc1 | 5% | 3 | nt | 3.8 | 1
O=C(COc1ccccc1F)N/N=C1\CCCc2ccccc21 | -1% | -1 | -7 | 1.6 | 2
COc1ccc(CNC(=O)CN2CCN(C(c3ccccc3)c3ccccc3)CC2)cc1 | 6% | 63 | nt | 0.3 | -17
O=C(NCCc1ccccc1)c1cccc(S(=O)(=O)N2CCCCC2)c1 | nt | -9 | nt | 1.8 | nt
COc1ccc(C(C)NC(=S)NCc2ccc(F)cc2)cc1 (stereo not given) | nt | -6 | nt | 5.8 | nt
CCCC(C)C(=O)Nc1nc(C)c(-c2csc(Nc3cc(OC)ccc3OC)n2)s1 (stereo not given) | 18% | 32 | -12 | 5.4 | -17
C=CCOc1ccc(NC(=O)C2CC(=O)N(C(C)C)C2)cc1 (stereo not given) | -5% | -16 | -15 | 1.7 | -4
CC1=C(C(=O)Nc2ccc(F)cc2)C(c2ccncc2)C2=C(CCCC2=O)N1 (stereo not given) | -3% | -2 | 18 | -6.1 | -5
Cc1cc(C)n2nc(C(=O)N3CCCC(CNS(=O)(=O)c4cccs4)C3)cc2n1 (stereo not given) | -4% | -2 | nt | -0.1 | 11
COc1cc(CN2CCCC(N3CCN(c4ccc(F)cc4)CC3)C2)ccc1F (stereo not given) | nt | -4 | nt | 0.0 | nt
O=C(CSc1nnc(-c2ccco2)o1)N1c2ccccc2CCc2ccccc21 | 3% | -7 | -8 | 4.5 | 3
Nc1ncn(-c2ncc(C(F)(F)F)cc2Cl)n1 | 2% | -4 | nt | 0.1 | 9
Later entries
SMILES | Mtb growth | Mtb betalactam | YopH inh | RecA splice inh | Arbovirus anti | others
C=CCn1c(SCC(=O)NCC2CCCO2)nnc1-c1ccccc1 (stereo not given) | 2% | 4 | nt | -3.6 | 4
COC(=O)c1ccc2c(c1)NC(=O)C(N1CCOCC1)S2 (stereo not given) | -7% | -4 | -42 | -3.1 | 4
O=C(COC(=O)/C=C/c1ccccc1)NCCC1=CCCCC1 | 94% | 12 | -24 | -0.2 | 10
CSc1nc(-c2ccco2)nn1C(=O)c1cccs1 | -3% | -7 | -12 | 32* | -2
CC(CCc1ccccc1)N(C)CC(O)c1cccc([N+](=O)[O-])c1 (stereo not given) | 0% | -4 | nt | 1.4 | nt
CCCc1nc2ccc(NC(=O)c3cccs3)cc2c(=O)n1Cc1ccccc1Cl | 10% | 2 | -31 | 0.1 | 2
O=C(CSc1nnc(NC(=O)c2ccco2)s1)Nc1ccc(F)cc1F | nt | -12 | nt | -0.1 | nt
CC(c1ccccc1)C1CC(=O)N(c2ccc([N+](=O)[O-])cc2)C1=O (stereo not given) | nt | -1 | nt | -2.9 | nt
COc1cccc(CN2CCN(Cc3nc(C(C)C)cs3)CC2CCO)c1 (stereo not given) | 1% | 0 | nt | 2.3 | 12
O=C(NC1CCCC1)C(c1cccnc1)N(C(=O)c1csnn1)c1ccccc1Cl (stereo not given) | nt | -10 | nt | -1.5 | nt
COCCNC(=O)c1ccc2c3n(nc2c1)-c1ccc(C)cc1CO3 | -2% | 8 | nt | -2.1 | nt
O=[N+]([O-])c1cccc(S(=O)(=O)N2CCCCC2)c1 | nt | 5 | nt | -0.1 | nt
CCc1nc2cccnc2n1-c1ccc(CC(=O)NC(C)CC)cc1 (stereo not given) | nt | 0 | nt | 0.0 | nt
Cc1ccc(C2C3=C(CC(C)(C)CC3=O)Nc3onc(C)c32)cc1 (stereo not given) | 3% | 1 | -17 | 1.0 | -7
Oc1[nH]c2ccccc2c1N=Nc1c(F)c(F)c(C(F)(F)F)c(F)c1F | nt | -5 | nt | 0.4 | nt
CC(=O)N1CCN(CCN=CC2=C(O)CC(c3ccc(Cl)cc3)CC2=O)CC1 (stereo not given) | nt | 8 | -23 | -1.8 | -6 | Arbovirus anti repeat=15
COc1cc2c(cc1OC)C(c1c(O)n(CCc3ccccc3)c(=S)[nH]c1=O)NCC2 (stereo not given) | -4% | -1 | nt | -7.6 | nt
CCc1ccc(Nc2cc(C(=O)NCCCN3CCOCC3)c3ccccc3n2)cc1 | nt | 4 | -17 | -4.6 | -2
O=C(CCC(=O)N1CCCC1)Nc1nnc(C(F)(F)F)s1 | -13% | -5 | -28 | -0.5 | 7
CCOC(=O)N1CCN(C(=O)CSc2nc3c(cnn3-c3ccc(C)cc3)c(=O)[nH]2)CC1 | 1% | 0 | nt | 1.3 | -2 | Arbovirus anti repeat=-2
O=c1c2ccccc2nnn1Cc1ccccn1 | -1% | -5 | -49 | 0.7 | 2
COc1cc([C@@H]2c3cc4c(cc3[C@@H](O)[C@@H](CO)[C@@H]2CO)OCO4)cc(OC)c1O[Si](C)(C)C(C)(C)C | 27% | ? | nt | -1.9 | nt
O=C(NCCNc1ccc([N+](=O)[O-])cc1)c1ccccc1F | nt | -2 | nt | 6.0 | nt
CCN(CCCCCCN)c1ccc2c(=O)[nH][nH]c(=O)c2c1 | 5% | 3 | nt | -1.7 | 3
CCOc1ccc(CCNC(=O)CCNC(=O)c2ccc(Br)cc2)cc1OCC | nt | 4 | nt | -2.8 | nt
Going on with the list:
SMILES | Mtb growth | Mtb betalactam | YopH inh | RecA splice inh | Arbovirus anti | others
COc1ccccc1C(CNC(=O)c1cccc(NS(=O)(=O)c2ccc(C)c(F)c2)c1)N1CCCC1 (stereo not given) | nt | -8 | nt | 3.3 | nt
Cc1cc(=O)n2nc(N3CCCC(C(=O)NCCc4ccccc4)C3)sc2n1 (stereo not given) | -4% | -13 | -32 | nt | 5
Cc1cc(C)cc(C(=O)Nc2c3c(nn2C(C)(C)C)CS(=O)(=O)C3)c1 | nt | -7 | nt | 4.0 | nt
CCOC(=O)/C(C#N)=C/c1c(N2CCN(c3ccccc3)CC2)nc2c(C)cccn2c1=O | nt | -6 | nt | 3.8 | nt
O=C(COC(=O)CNC(=O)c1ccc(-c2ccccc2)cc1)NCc1ccco1 | -2% | -12 | nt | 5.6 | -2
Cc1ccc2oc(=O)c3cnn(CC(=O)N4CCCCC4C)c3c2c1 (stereo not given) | 0% | -6 | 3 | 3.8 | -3 | Arbovirus anti repeat=0
CCOC(=O)C1CCCN(C(=O)c2cc(Nc3ccc(OC)c(OC)c3)nc3ccccc23)C1 (stereo not given) | 8% | 2 | -43 | 0.3 | -5
CC(C)c1cccc(OCCCCN(C)C)c1 | 0% | -4 | nt | 3.5 | -1
Cc1occc1C(=O)O/N=C(\N)c1ccc(Cl)cc1 | 7% | 2 | nt | -3.3 | nt
COc1ccc(Nc2ncnc3c2cnn3Cc2ccc(C)cc2)cc1 | 5% | 7 | -20 | -0.1 | 7
CC(=O)c1ccc(NC(=O)C[n+]2cccc(C)c2)cc1 | nt | -5 | nt | -2.2 | nt
O=C(NC(Cc1ccc(F)cc1)C(=O)O)c1ccccc1 (stereo not given) | 1% | -10 | -14 | -5.7 | -3
COc1ccc(S(=O)(=O)N(Cc2ccccc2)c2ccccc2C(=O)N2CCOCC2)cc1 | nt | -6 | nt | -1.4 | nt
